HTT promoter inh = Primary qHTS for Identification of Small Molecule Inhibitors of Huntingtin Promoter Activity. HEK293 HTT promoter firefly luciferase reporter (activity 0% = vehicle and -100% = no light), 24 h. Potency, µM (titrated, usually from 57.5 µM), without a hit: top-dose activity change, negative = inhibition, actives largely listed as inhibitors. actives 0.93% (n = 48,000). AID 1508623, 2021; active = well fitted inhibition curve with a large enough effect; inconclusive = small, poorly fitted or top-dose-only effect; inactive = no such curve, though single readings can be large or run the other way; also: nearly all actives have a fitted effect of over 50% in size
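HEK293 Fluc reporter, 2,500 cells/well, 24 h pre-culture; cpds up to 57.5 uM final, 24 h 37 degrees C; Dual-Glo, 10 min RT; normalized vehicle = 0%, zero RLU = -100%.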
PMP22 txn prim = Cell-based coincidence reporter assay to measure PMP22 gene transcription in S16 Pmp22-F2sN cells - Primary screen; S16 Pmp22-F2sN Schwann cells (luciferase reporters placed in the Pmp22 gene), FLuc/NLuc coincidence luminescence, 24 h; Potency, µM (doses to about 57.5 µM), for the others: top-dose activity change, negative = inhibition, hits mostly inhibitors; actives 2% (n = 43,000); AID 1508649, 2021; active = clear falling dose curves in both reporters; inconclusive = both reporters move, but less clearly or upward; inactive = either reporter flat; the % is the NLuc reporter signal; also: % is scaled to controls: 0 for no effect and ±100 for the full control effect; some results filed as inactive show a strong effect at the top dose
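Luminescent read-out of sequential FLuc and NLuc signals from a reporter embedded in the Pmp22 3' UTR of S16 Schwann cells, taken after 24 h compound exposure at 37C; compounds reducing both signals score as inhibitors of expression.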
Starred values were filed as active, the others as inactive. Potency is read from the fitted curve at half-maximal effect. Outcome played no part in choosing rows; any-hit rate near 2.6%.

`CCCS(=O)(=O)c1nc(S(=O)(=O)c2ccc(C)cc2)c(N(CC)CC)s1` gave HTT promoter inh -11.5% and PMP22 txn prim inconclusive.
`CCCN1C(=O)c2[nH]nc(-c3ccccc3O)c2C1c1cccc(OCc2ccccc2)c1` (centres undefined) gave HTT promoter inh inconclusive and PMP22 txn prim inconclusive.
CCOC(=O)c1ccccc1NC(=O)Cn1ccn2nc(-c3ccc(OCC)cc3)cc2c1=O was read as HTT promoter inh -10.9% and PMP22 txn prim 7.1%.
For Cc1ccccc1NS(=O)(=O)c1ccc2c(c1)NC(=O)CCS2 the results were HTT promoter inh -22.1% and PMP22 txn prim -12.7%.
Screening COc1cccc(CNC(=O)c2nnn(CC(=O)Nc3cc(Cl)ccc3C)c2N)c1 returned HTT promoter inh -17.1% and PMP22 txn prim -26.4%.
`CC(C)(C)C(=O)C(Oc1ccc(Cl)cc1)n1ccnc1` (centres undefined) gave HTT promoter inh 1.1%.
`CCc1ccccc1NC(=O)CSc1ncc(S(=O)(=O)c2ccc(C(C)C)cc2)c(N)n1` gave HTT promoter inh inconclusive and PMP22 txn prim 17.9µM*.
CCc1ccc(NC(=O)c2ccc(F)c(S(=O)(=O)N3CCC(C)CC3)c2)cc1 was read as HTT promoter inh 4.47µM* and PMP22 txn prim -17.8%.
`CCOc1ccc(C(=O)NCC(c2ccc3c(c2)OCO3)N2CCN(c3ccccc3F)CC2)cc1` (centres undefined) gave HTT promoter inh inconclusive and PMP22 txn prim 15.0%.
COc1cc(NC(=O)c2ccc3oc(=O)c(S(=O)(=O)c4ccccc4)cc3c2)cc(OC)c1 was read as HTT promoter inh inconclusive and PMP22 txn prim -23.9%.
For COCCCn1c(SCC(=O)Nc2ccccc2OC)nc2c(sc3ccccc32)c1=O the results were HTT promoter inh 11.1% and PMP22 txn prim inconclusive.
CC(C)CNC(=O)C(=O)Nc1c2c(nn1-c1ccccc1)CS(=O)(=O)C2 was read as HTT promoter inh inconclusive and PMP22 txn prim -12.2%.

Structures shown so far that contain a Cl atom, in the order listed:
Screening COc1cccc(CNC(=O)c2nnn(CC(=O)Nc3cc(Cl)ccc3C)c2N)c1 returned HTT promoter inh -17.1% and PMP22 txn prim -26.4%.
`CC(C)(C)C(=O)C(Oc1ccc(Cl)cc1)n1ccnc1` (centres undefined) gave HTT promoter inh 1.1%.

(more compounds)
For O=C(NCc1ccccc1Cl)C(=O)NCC(c1cccs1)S(=O)(=O)c1cccs1 (centres undefined) the results were HTT promoter inh inconclusive and PMP22 txn prim inconclusive.
`CC(C)(C)C(=O)Nc1ccc2nc(SCC(=O)N3CCc4ccccc43)sc2c1` gave HTT promoter inh inconclusive and PMP22 txn prim -42.4%.
Screening CCOC(=O)C1CCN(C(c2cccc(F)c2)c2c(O)cc(C)n(Cc3ccco3)c2=O)CC1 (centres undefined) returned HTT promoter inh -7.3% and PMP22 txn prim 5.4%.
For COc1ccccc1NC(=O)Cn1c(=O)n(Cc2ccccc2)c(=O)c2c3c(sc21)CN(C(C)=O)CC3 the results were HTT promoter inh -0.7% and PMP22 txn prim 5.0%.
`CCC(=O)Nc1ccc(CC)cc1-c1nc2ccccc2n(CC(=O)Nc2ccccc2C)c1=O` gave HTT promoter inh -9.0% and PMP22 txn prim -10.5%.
Screening CCC(=O)OCCCNc1nc(-c2ccc(Cl)cc2)nc2ccccc12 returned HTT promoter inh -28.6% and PMP22 txn prim inconclusive.
Screening Cc1nn(C(=O)c2ccccc2)c(C)c1S(=O)(=O)N1CCOCC1 returned HTT promoter inh -8.0% and PMP22 txn prim -7.7%.
Screening COc1c(C)cc(Br)cc1C(=O)Nc1ccc(-c2nc3ncccc3o2)cc1 returned HTT promoter inh inconclusive and PMP22 txn prim inconclusive.
For Cc1ccc(-c2nc(CNC(=O)Nc3ccccc3)c(C)o2)cc1 the results were HTT promoter inh -1.1% and PMP22 txn prim 7.6%.
`CCOc1ccc(CCNC(=O)C(CC(C)C)N2Cc3ccccc3C2=O)cc1OCC` (centres undefined) gave HTT promoter inh inconclusive and PMP22 txn prim -26.1%.
For CCCC1=Nc2cc(C(=O)N3CCC(C(=O)OCC)CC3)ccc2Sc2ccccc21 the results were HTT promoter inh -18.3% and PMP22 txn prim inconclusive.
`CNC(=O)C1CCC(Cn2c(=O)c3sccc3n(CC(=O)Nc3cc(C)cc(C)c3)c2=O)CC1` (centres undefined) gave HTT promoter inh -11.6% and PMP22 txn prim 3.0%.
For Cc1ccc(Cl)cc1NC(=O)Cn1cc2c(n1)CCCCC2 the results were HTT promoter inh -6.2% and PMP22 txn prim -15.2%.
Cc1ccc(S(=O)(=O)c2cn(Cc3ccccc3)c3cc(N4CCOCC4)c(F)cc3c2=O)cc1 was read as HTT promoter inh inconclusive and PMP22 txn prim -17.2%.
CCCSCCCNC(=O)CN1C(=O)COc2ccc(S(=O)(=O)N3CCCCCC3)cc21 was read as HTT promoter inh -21.7% and PMP22 txn prim inconclusive.
O=C(NC1CCCCC1)c1ccc(CSc2nc3cccnc3n2Cc2ccccc2)cc1 was read as HTT promoter inh -28.9% and PMP22 txn prim inconclusive.
Screening CCc1ccc(C2c3c(oc4ccc(F)cc4c3=O)C(=O)N2c2nc(C)c(C(=O)OC)s2)cc1 (centres undefined) returned HTT promoter inh -9.1% and PMP22 txn prim 1.4%.
COc1ccccc1Nc1cc(C(=O)NC2CCC(C)CC2)c2ccccc2n1 (centres undefined) was read as HTT promoter inh -5.8% and PMP22 txn prim -32.9%.
For COc1cn(CC(=O)Nc2ccc(F)cc2)c(CN2CCCCC2)cc1=O the results were HTT promoter inh -6.3% and PMP22 txn prim -5.1%.
COCCCNC(=O)c1cc2c(-c3cccc(OC)c3)nn(C)c2s1 was read as HTT promoter inh -12.2% and PMP22 txn prim inconclusive.
For CCc1nn(CC(=O)Nc2ccc(N(CC)CC)cc2C)c(=O)c2cc3sccc3n12 the results were HTT promoter inh 8.8% and PMP22 txn prim -14.5%.
COc1ccc(CCNC(=O)c2cnc3sc(N4CCOCC4)nn3c2=O)cc1 was read as HTT promoter inh -2.9% and PMP22 txn prim -16.4%.
`COc1ccc(N(C(=O)c2ccccc2C)S(=O)(=O)c2ccc(C)cc2)cc1` gave HTT promoter inh inconclusive and PMP22 txn prim -25.9%.
CCNc1c(NC(=O)c2ccccc2OCC)c(=O)oc2ccccc12 was read as HTT promoter inh -8.6% and PMP22 txn prim 6.2%.

Structures shown so far that have a tert-butyl group, in the order listed:
`CC(C)(C)C(=O)C(Oc1ccc(Cl)cc1)n1ccnc1` (centres undefined) gave HTT promoter inh 1.1%.
`CC(C)(C)C(=O)Nc1ccc2nc(SCC(=O)N3CCc4ccccc43)sc2c1` gave HTT promoter inh inconclusive and PMP22 txn prim -42.4%.

Remaining list, next part:
For CCc1cccc(NC(=O)c2sc3nc[nH]c(=O)c3c2C)c1 the results were HTT promoter inh 28.4% and PMP22 txn prim inconclusive.
For Cc1c(-c2cccc(NC(=O)c3ccc(F)c(F)c3)c2)nc2ncccn12 the results were HTT promoter inh -2.2% and PMP22 txn prim -27.3%.
For COc1ccccc1N(CC(=O)Nc1cc(C)cc(C)c1)S(C)(=O)=O the results were HTT promoter inh -0.9% and PMP22 txn prim 11.5%.
Screening Cn1c(=O)c2c(SCC(=O)NCc3ccco3)nc(-c3ccccc3Cl)nc2n(C)c1=O returned HTT promoter inh -20.1% and PMP22 txn prim inconclusive.
`COc1ccccc1NC(=O)CSc1oc(-c2ccccc2)nc1S(=O)(=O)c1ccc(C)cc1` gave HTT promoter inh -23.1% and PMP22 txn prim -15.9%.
Cc1ccsc1C(=CCCN1CCC[C@@H](C(=O)O)C1)c1sccc1C was read as HTT promoter inh 3.4%.
For COc1cc2cc(CNc3ccccc3)c(=O)n(CC(=O)Nc3cccc(Cl)c3C)c2cc1OC the results were HTT promoter inh -12.1% and PMP22 txn prim inconclusive.
`Cc1ccc(Cl)cc1NC(=O)Cn1nc2c(cc1=O)CC(C)CC2` (centres undefined) gave HTT promoter inh 2.1% and PMP22 txn prim -12.7%.
`Cc1ccc(NS(=O)(=O)c2ccc3c(c2)N(C)C(=O)CC(=O)N3C)cc1Cl` gave HTT promoter inh -22.1% and PMP22 txn prim 34.3%.
CCc1ccc2oc(-c3ccc(NC(=O)c4cccc(Cl)c4Cl)cc3)nc2c1 was read as HTT promoter inh inconclusive and PMP22 txn prim -25.0%.
COc1ccc2ncc3c(-c4ccc(C)c(C)c4)nn(CC(=O)NC4CCCC4)c3c2c1 was read as HTT promoter inh -15.3% and PMP22 txn prim inconclusive.
Cc1ccc(NC(=O)Nc2ccccc2OCc2cc(=O)n3ccccc3n2)c(Cl)c1 was read as HTT promoter inh 15.4% and PMP22 txn prim -32.2%.

Three compounds from above, sorted by molar mass, smallest number first:
Screening COc1c(C)cc(Br)cc1C(=O)Nc1ccc(-c2nc3ncccc3o2)cc1 returned HTT promoter inh inconclusive and PMP22 txn prim inconclusive.
Screening Cn1c(=O)c2c(SCC(=O)NCc3ccco3)nc(-c3ccccc3Cl)nc2n(C)c1=O returned HTT promoter inh -20.1% and PMP22 txn prim inconclusive.
Cc1ccc(S(=O)(=O)c2cn(Cc3ccccc3)c3cc(N4CCOCC4)c(F)cc3c2=O)cc1 was read as HTT promoter inh inconclusive and PMP22 txn prim -17.2%.

(continued)
`CCOC(=O)N1CCc2c(sc3c2c(=O)n(CCc2ccccc2)c(=O)n3CC(=O)Nc2ccc(C)cc2)C1` gave HTT promoter inh 3.2% and PMP22 txn prim -3.2%.
For COc1ccc2nc(N(Cc3cccnc3)C(=O)COc3ccccc3)sc2c1 the results were HTT promoter inh -3.8% and PMP22 txn prim 7.0%.
`O=C(COc1ccc(F)cc1)Nc1ccc2nc(SCC(=O)N3CCCC3)sc2c1` gave HTT promoter inh -28.2% and PMP22 txn prim -15.5%.
CCOc1ccc(NC(=O)Cn2c(=O)n(CC(=O)NCCc3ccccc3)c(=O)c3sccc32)cc1 was read as HTT promoter inh -9.9% and PMP22 txn prim inconclusive.
Screening COc1ccccc1CNC(=O)CCS(=O)(=O)c1ccc2c(c1)oc(=O)n2C returned HTT promoter inh -5.6% and PMP22 txn prim -8.8%.
Cc1ccc(Cl)cc1-n1ncc2c(NC3CCCCC3)ncnc21 was read as HTT promoter inh inconclusive and PMP22 txn prim inconclusive.
Screening Cc1ccc(C2CC(=O)Nc3cc4c(cc32)OCCO4)cc1 (centres undefined) returned HTT promoter inh inconclusive and PMP22 txn prim -26.8%.
For COc1ccc(C)cc1NC(=O)c1nnn(CC(=O)Nc2c(C)cccc2C)c1N the results were HTT promoter inh -4.5% and PMP22 txn prim 9.15µM*.
`CCCNC(=O)c1ccc(-c2nc(CS(=O)(=O)c3ccc(C)cc3)c(C)o2)cc1` gave HTT promoter inh -17.4% and PMP22 txn prim -5.6%.
Screening CCOc1ccccc1NC(=O)c1ccc(F)c(S(=O)(=O)N2CCN(c3ccc(F)cc3)CC2)c1 returned HTT promoter inh inconclusive and PMP22 txn prim -15.3%.
COc1ccc(C(=O)Nc2ccc(-n3nncc3-c3ccc(OC)c(OC)c3)cc2)cc1 was read as HTT promoter inh 0.4% and PMP22 txn prim inconclusive.
CCOc1ccc(C(c2c(O)cc(C)n(CCOC)c2=O)N2CCC(C)CC2)cc1 (centres undefined) was read as HTT promoter inh -9.9% and PMP22 txn prim 19.5%.
`Cc1ccc(-c2nc(-c3cc4cccc(OCc5cccc(F)c5)c4oc3=O)no2)cc1` gave HTT promoter inh -11.2% and PMP22 txn prim inconclusive.
CC1CCC(C(=O)NC(C(=O)OCC(=O)c2ccc(Br)cc2)C(C)C)CC1 (centres undefined) was read as HTT promoter inh -25.6% and PMP22 txn prim inconclusive.
`O=C(CN1C(=O)CCSc2ccc(S(=O)(=O)N3CCCC3)cc21)Nc1ccccc1Cl` gave HTT promoter inh -8.4% and PMP22 txn prim -6.7%.
`Cc1ccc(NC(=O)C2CCCN(S(=O)(=O)c3cccc4cccnc34)C2)c(Br)c1` (centres undefined) gave HTT promoter inh -27.8% and PMP22 txn prim inconclusive.
Screening COc1cc(C(c2c(C)[nH][nH]c2=O)c2c(C)[nH][nH]c2=O)ccc1OC(=O)c1ccccc1OC returned HTT promoter inh 6.3% and PMP22 txn prim -4.4%.
`Cc1ccc(-c2noc(-c3ccc(N4CCC(C)CC4)c([N+](=O)[O-])c3)n2)cc1` gave HTT promoter inh 1.9% and PMP22 txn prim 0.3%.
CCCC(C(=O)Nc1cc(C)c(Cl)cc1OC)N1Cc2ccccc2C1=O (centres undefined) was read as HTT promoter inh -12.4% and PMP22 txn prim inconclusive.
CCOc1ccc(C(c2c(O)cc(C)n(Cc3ccco3)c2=O)N2CCN(C)CC2)cc1 (centres undefined) was read as HTT promoter inh -7.0% and PMP22 txn prim -118.8%.
CC(C)c1nn2c(=O)cc(COC(=O)c3ccc(NC(=O)c4ccccc4Cl)cc3)nc2s1 was read as HTT promoter inh -11.7% and PMP22 txn prim inconclusive.
For CCOC(=O)c1ccc(N2C(=O)c3n[nH]c(-c4cccs4)c3C2c2ccc(C(C)(C)C)cc2)cc1 (centres undefined) the results were HTT promoter inh -8.3% and PMP22 txn prim inconclusive.
`CCOC(=O)c1c(C)[nH]c(C)c1S(=O)(=O)N1CCC(C(=O)N2CCN(c3ccc(F)cc3)CC2)CC1` gave HTT promoter inh -21.7% and PMP22 txn prim -8.6%.

Compound activity deposited in PubChem by National Center for Advancing Translational Sciences (NCATS).
